FLuc stim CS: firefly luciferase counter-screen for stimulation assays | P08659 | ATPlite luciferase biochemical, luminescence, 10 min; 0 = ATP-free wells, 1 = DMSO control | activation factor at 10 µM | 200,000 tested, under 10 active | AID 1027;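 active = luciferase activation factor, scaled between plate controls, of at least 2 with compound at 10 µM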
Target sequence (P08659 whole entry, looked up): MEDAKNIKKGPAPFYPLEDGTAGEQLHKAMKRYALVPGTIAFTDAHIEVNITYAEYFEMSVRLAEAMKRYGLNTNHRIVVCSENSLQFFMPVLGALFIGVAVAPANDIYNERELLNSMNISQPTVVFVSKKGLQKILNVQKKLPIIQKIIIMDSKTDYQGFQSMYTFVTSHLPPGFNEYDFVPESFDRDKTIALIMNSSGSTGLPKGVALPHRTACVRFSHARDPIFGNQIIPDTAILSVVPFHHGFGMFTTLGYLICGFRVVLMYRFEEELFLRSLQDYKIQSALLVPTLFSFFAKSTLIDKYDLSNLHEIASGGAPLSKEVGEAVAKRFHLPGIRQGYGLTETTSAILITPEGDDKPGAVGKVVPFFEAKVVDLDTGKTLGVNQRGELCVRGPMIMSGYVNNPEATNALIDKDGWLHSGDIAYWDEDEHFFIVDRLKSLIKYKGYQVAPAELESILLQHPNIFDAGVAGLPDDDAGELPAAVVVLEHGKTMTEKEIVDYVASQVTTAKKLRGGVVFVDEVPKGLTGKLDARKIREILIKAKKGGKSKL
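Material: Luciferase/luciferin reagent mix; Doses: test compounds dosed from 2 mM stocks in 100% DMSO; Schedule: 10 min incubation after luciferase reagent addition, room temperature; Measured by: luminescence from luciferase reaction; Read-out: luminescence gain marking luciferase activators.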
FLuc inhib CS: Photinus pyralis luciferase inhibition counter-screen | 200,000 compounds, 1.5% hits | ATPLite firefly luciferase biochemical luminescence, 10 min | AID 1006 | inhibition, % at 10 µM | P08659;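 active = inhibition above about 50% when tested at 10 µM, limit read from the data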
PMI activator: activators of human phosphomannose isomerase; P34949; activation factor at 20 µM; purified human PMI, coupled resazurin fluorescence, 20 min; hits give high values; 1 = vehicle control, 0 substrate-free wells; 190,000 compounds, 0.005% hits;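 active = activation factor of 2 or more at 20 µM, relative to plate controls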
PMI act hi M6P: activators of human phosphomannose isomerase at near-saturating mannose 6-phosphate | P34949 | coupled PMI enzyme assay, resazurin fluorescence, 20 min; hits give high values; 1 = untreated enzyme, 0 = substrate-free blank | activation factor at 20 µM | 190,000 compounds, 0.34% hits;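 active = activation factor of 2 or more at 20 µM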
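Material: human phosphomannose isomerase with PGI, G6PDH, diaphorase coupling enzymes. Quantity: 15 ng/mL PMI. Medium: HEPES pH 7.4 buffer with MgCl2 and Tween-20. Reagent: Near-saturating mannose-6-phosphate, 1.0 mM. Compound: 20 µM single dose. Times: enzyme reaction with compound 20 min at room temperature. Detection: resorufin fluorescence at Ex 544/Em 590 nm.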
NF-kB neuron act: NF-kB expression increase, human neuronal cells; NF-kB reporter expression; hits give high values; fold change at 12.5 µM; 190,000 compounds, 1.6% hits; AID 1239; in the data active = fold change above about 3.3
APP 5'UTR act: activates APP 5'UTR luciferase reporter | SH-SY5Y APP 5'UTR luciferase reporter, luminescence; zero percent = DMSO vehicle wells | activation, % at 2 µM | 190,000 compounds, 1% hits | AID 1276;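 active = activation above a set limit, based on mean plus 3 SD of controls, cut at about 140% in these data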; also: values of inactives mirror those of a sister screen read the other way
Starred values were filed as active, the others as inactive; & = joins results of further samples.

SMILES	FLuc stim CS	FLuc inhib CS	PMI activator	PMI act hi M6P	NF-kB neuron act	APP 5'UTR act
Cc1nc(NC(=O)/C=C/c2ccccc2)sc1C(=O)Nc1ccccc1Cl	1.1	-7.0	1.1	1.1	1.08	35.1
O=C(Nc1cc(N2CCOCC2)ncn1)NC1(C(F)(F)F)Oc2ccc(Cl)cc2O1 (configuration not stated)	1.1	-5.9	0.3	0.3	2.34	-43.0
Cc1ccc(NC(=S)NNC(=O)c2ccccc2OC(F)F)cc1	1	-1.8	1.1	1.1	1.65	13.7
CCN(CC(=O)Nc1cccc(F)c1)Cc1nc2ccccc2c(=O)[nH]1	1	1.6	1	1	1.11	-8.1
COc1ccc(OCCCC(=O)Nc2ncn[nH]2)cc1	1.1	-7.1	1	1	1.01	5.7
COc1ccc(C(=O)NNC(=S)NC2CCCCC2)cc1OC	1	-0.7	1	1	1.28	11.6
COCCNC(=O)NC1(C(F)(F)F)Oc2ccc(Cl)cc2O1 (configuration not stated)	1.1	-8.5	0.8	0.9	2.69	-31.4
Cc1ccccc1C(=O)NC(=S)Nc1ccc(Oc2ccc(Cl)cc2)cc1	1	-4.2	0.8	0.8	0.96	-8.6
Cc1ccc(C)c(NC(=S)NC(NC(=O)Cc2ccccc2)C(Cl)(Cl)Cl)c1 (configuration not stated)	1.1	-7.9	1.1	1.1	1.08	15.2
O=C(CC(c1ccccc1)c1ccccc1)Nc1ncn[nH]1	1.1	-7.0	1	1	0.94	-0.5
COc1ccc2c(c1)c(CC(=O)OCC(=O)O)c(C)n2C(=O)c1ccc(Cl)cc1	1	3.6	1.3	1.1	0.92	1.4
CN(C)CCCn1c(SCC(=O)Nc2sc3c(c2C#N)CCCC3)nnc1-c1ccncc1	1	-1.3	0.9	0.9	1.38	3.9
CCCc1c(OCCCCc2nn[nH]n2)ccc(C(C)=O)c1O	1.1&1.1	-6.6&-5.0	1.2&1	1.2&1	1.18	3.5
O=C(Nc1ccc(F)cc1)c1sccc1SCc1cccc(C(F)(F)F)c1	1.1	-5.1	0.9	0.9	1.44	7.2
CC(=O)Nc1nc(SCc2cccc3ccccc23)n[nH]1	1	0.5	0.9	0.9	1.38	-19.9

Sorted by value in APP 5'UTR act (smallest number first): three of the compounds above.
canonical_smiles	PMI activator	PMI act hi M6P	NF-kB neuron act	APP 5'UTR act
O=C(Nc1cc(N2CCOCC2)ncn1)NC1(C(F)(F)F)Oc2ccc(Cl)cc2O1 (configuration not stated)	0.3	0.3	2.34	-43.0
COCCNC(=O)NC1(C(F)(F)F)Oc2ccc(Cl)cc2O1 (configuration not stated)	0.8	0.9	2.69	-31.4
Cc1ccccc1C(=O)NC(=S)Nc1ccc(Oc2ccc(Cl)cc2)cc1	0.8	0.8	0.96	-8.6

Fetched by compound from the entries so far (4):
SMILES	FLuc stim CS	FLuc inhib CS	PMI activator	PMI act hi M6P	NF-kB neuron act	APP 5'UTR act
COCCNC(=O)NC1(C(F)(F)F)Oc2ccc(Cl)cc2O1 (configuration not stated)	1.1	-8.5	0.8	0.9	2.69	-31.4
COc1ccc(OCCCC(=O)Nc2ncn[nH]2)cc1	1.1	-7.1	1	1	1.01	5.7
CCCc1c(OCCCCc2nn[nH]n2)ccc(C(C)=O)c1O	1.1&1.1	-6.6&-5.0	1.2&1	1.2&1	1.18	3.5
O=C(Nc1cc(N2CCOCC2)ncn1)NC1(C(F)(F)F)Oc2ccc(Cl)cc2O1 (configuration not stated)	1.1	-5.9	0.3	0.3	2.34	-43.0

Three compounds out of the list, sorted by count of non-hydrogen atoms, rising.
SMILES	FLuc stim CS	FLuc inhib CS	PMI activator	PMI act hi M6P	NF-kB neuron act	APP 5'UTR act
CCCc1c(OCCCCc2nn[nH]n2)ccc(C(C)=O)c1O	1.1&1.1	-6.6&-5.0	1.2&1	1.2&1	1.18	3.5
Cc1ccc(NC(=S)NNC(=O)c2ccccc2OC(F)F)cc1	1	-1.8	1.1	1.1	1.65	13.7
COc1ccc2c(c1)c(CC(=O)OCC(=O)O)c(C)n2C(=O)c1ccc(Cl)cc1	1	3.6	1.3	1.1	0.92	1.4

Some of the compounds tested; count on the stated rates, not on these rows.
